Mtb H37Rv: Mycobacterium tuberculosis H37Rv growth inhibition, cell based, confirmatory dose response (AID 1949); most inactive calls were filed without a number and no value below 0 was filed; one-dose inhibition, % at 10 µg/mL; IC50 in µg/mL for titrated hits; 1.6% of 100,000 active;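 active means confirmed in a dose series; inconclusive means about 50% or more but not retested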;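 further: bacteria grown 7 days with compound before Alamar blue readout; 0% = untreated bacteria and 100% = reference antibiotic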
* hit, by the source's call; i = inactive; ? = inconclusive. These rows are one share of the data (hit frequency here may not be typical).

The first 6 records (preview)
SMILES	Mtb H37Rv
CCCC(=O)Nc1ccccc1NC(=O)c1ccccc1Cl	i
COc1ccc(-c2nc3ccccc3n2Cc2cccc(C)c2)cc1	?
Cc1ccc(C(=O)Nc2ccc3oc(-c4cc(F)c(F)cc4Cl)nc3c2)cc1[N+](=O)[O-]	i
Clc1ccc(OCCCOc2ccc(Cl)cc2)cc1	i
Cc1cc(NC(=S)NC(=O)c2cc(Cl)ccc2Cl)ccc1NC(=O)c1ccco1	45%
CCNC(=O)C(=O)Nc1cccc(C)c1	i

All compounds of this part (from the top)
SMILES	Mtb H37Rv
CCCC(=O)Nc1ccccc1NC(=O)c1ccccc1Cl	i
COc1ccc(-c2nc3ccccc3n2Cc2cccc(C)c2)cc1	?
Cc1ccc(C(=O)Nc2ccc3oc(-c4cc(F)c(F)cc4Cl)nc3c2)cc1[N+](=O)[O-]	i
Clc1ccc(OCCCOc2ccc(Cl)cc2)cc1	i
Cc1cc(NC(=S)NC(=O)c2cc(Cl)ccc2Cl)ccc1NC(=O)c1ccco1	45%
CCNC(=O)C(=O)Nc1cccc(C)c1	i
O=C(CC12CC3CC(CC(C3)C1)C2)Nc1ccccn1	i
Oc1ccccc1-c1n[nH]c(/C=C/c2ccc(Cl)cc2)n1	2.7µg/mL*
CC(Oc1ccc(Cl)cc1Cl)C(=O)N1CCN(Cc2ccc3c(c2)OCO3)CC1 (stereo not given)	i
O=C1CC(c2ccncc2)c2cc3c(cc2N1)OCO3 (stereo not given)	0%
O=C(CN(c1ccccc1F)S(=O)(=O)c1ccccc1)Nc1cccc(Cl)c1	2%
CCOCCC(=O)N(CC)C1CCCCC1	i
CC(=O)c1ccc(NC(=O)CSc2nnc3n(C)c(=O)c4c5c(sc4n23)CCCC5)cc1	i
O=C1NC(=O)C(CCc2ccccn2)(CCc2ccccn2)C(=O)N1CCC1=CCCCC1	i
COc1ccc(-c2nnc3c4ccccc4c(C)nn23)cc1S(=O)(=O)NCc1ccccc1	i
CCOc1ccc2nc(NC(=O)C3Cc4ccccc4O3)sc2c1 (stereo not given)	i
CCc1ccc(CNc2ccc(S(N)(=O)=O)cc2)cc1	5%
Cc1ccc(NC(=O)CSc2nnc(CCc3ccccc3)n2CC(C)C)c(Br)c1	2%
CCc1ccc2nc(N/C(N)=N/C(=S)Nc3ccccc3Cl)nc(C)c2c1	5%
NC(=O)C1CCCN1S(=O)(=O)c1ccc(F)cc1 (stereo not given)	i
Cc1cc(Cl)ccc1N(CC(=O)N1CCCC1)S(C)(=O)=O	i
N#Cc1ccc(NC(=O)CSc2ccc(Br)cc2)cc1	3µg/mL*
CCOc1ccccc1N1CCN(C(=O)c2ccccc2)CC1	9%
CC(C)(C)c1ccc(S(=O)(=O)NNC(=S)NC2CCCC2)cc1	i
O=C(CC12CC3CC(CC(C3)C1)C2)NC(=S)Nc1cccc(-c2cc3ccccc3oc2=O)c1	?

Part of the list above, with each value named.
O=C(CC12CC3CC(CC(C3)C1)C2)Nc1ccccn1
- Mtb H37Rv: i

N#Cc1ccc(NC(=O)CSc2ccc(Br)cc2)cc1
- Mtb H37Rv: 3µg/mL*

CC(=O)c1ccc(NC(=O)CSc2nnc3n(C)c(=O)c4c5c(sc4n23)CCCC5)cc1
- Mtb H37Rv: i

CCNC(=O)C(=O)Nc1cccc(C)c1
- Mtb H37Rv: i

Continuation:
SMILES	Mtb H37Rv
CC(C)NC(=O)c1ccccc1NS(=O)(=O)c1ccc(Br)cc1	i
CCc1ccccc1NC(=O)C1CC(c2cccc(Br)c2)=NO1 (stereo not given)	i
CCn1c(SCC(=O)Nc2nc(C)cs2)nnc1C(NC(=O)c1ccccc1Cl)C(C)C (stereo not given)	1%
O=C(Nc1nc2c(s1)CCc1ccccc1-2)c1cccc(F)c1	4%
O=C(c1cc2c(s1)CCCC2)N1CCc2ccccc2C1	4%
Cc1ccc(Oc2ccc3c(c2)C(=O)N(CC(=O)O)C3=O)cc1	i
Cc1nnc(SCC(=O)c2ccc(Oc3ccccc3)cc2)s1	i
O=C(NC(=S)N1CCOCC1)c1ccc2c(c1)OCO2	i
Cc1ccccc1C(=O)Nc1ncc(Cc2ccccc2)s1	i
CCOCC(=O)Nc1cccc(C(F)(F)F)c1	i
O=C(Nc1ccc(Nc2ccccc2)cc1)C1CC2CCCC(C1)C2=O (stereo not given)	i
Cc1ccc2c(=O)cc(-c3ccc(Cl)cc3)oc2c1	i
Cc1cc(NC(=O)c2cccc([N+](=O)[O-])c2)ccc1O	i
Cc1cc(Br)c(NC(=O)CSc2nnc(CCCOc3ccc(Cl)cc3Cl)o2)cc1C	i
CC1(C)CC(=O)C2=C(C1)N(Cc1cccnc1)C(=O)NC2(C(F)(F)F)C(F)(F)F	2%
CC(C)(C)c1ccc(C(=O)N2CCC(C(=O)N3CCN(c4cccc(Cl)c4)CC3)CC2)cc1	i
O=C(CC1(O)C(=O)N(CCc2ccccc2)c2ccc(Cl)cc21)c1cccnc1 (stereo not given)	6µg/mL*
CCOc1cc(C2CC(=O)NC(SCC(=O)Nc3cccc(C(F)(F)F)c3)=C2C#N)ccc1O (stereo not given)	i
CC(C)(C)NS(=O)(=O)c1ccc(NC(=O)c2cc(-c3ccccc3)nc3ccccc23)cc1	5%
Cn1c(=O)c2c(nc(Oc3cccc(Oc4nc5c(c(=O)n(C)c(=O)n5C)n4C)c3)n2C)n(C)c1=O	i
CC(=O)Nc1cccc(NC(=O)c2cccc3ccccc23)c1	3%
O=[N+]([O-])c1ccc(NC(=S)Nc2cnccn2)cc1	46%
CC(C)CNS(=O)(=O)c1ccc(CCC(=O)Nc2ccc(Oc3ccccc3)cc2)cc1	i
O=C(O)Cn1c(-c2ccc(Br)cc2)nc(=S)c2c1CCCC2	i
CCn1cc(Br)c(C(=O)Nc2cc(Cl)ccc2OC)n1	i
SMILES	Mtb H37Rv
O=C(c1ccc(Cl)cc1)c1ccc(OCC(O)CN2CCOCC2)cc1 (stereo not given)	4%
CC(=O)Nc1nc(-c2ccc(OC(C)=O)cc2)cs1	?
CCOC(=O)c1c(N)sc(C(=O)N2CCc3ccccc3C2)c1C	5%
CCN1CCN(CCNC(=O)Nc2ccccc2C)CC1	i
COc1ccc(-c2noc(COc3cc(C)c(Br)c(C)c3)n2)cc1	i
O=C(Cc1cccs1)Nc1ccc(S(=O)(=O)N2CCCCC2)cc1	i
S=C(c1cn(CCOc2cccc3ccccc23)c2ccccc12)N1CCOCC1	6%
CCN(CC)C(=S)NC(=O)c1cccnc1	i
Cn1c(SCC(=O)Nc2cccc(C(F)(F)F)c2)nnc1-c1c[nH]c2ccccc12	i
CC(=O)NC(C1C(=O)CC(C)(C)CC1=O)(C(F)(F)F)C(F)(F)F	i
Cn1c(=O)c2c(ncn2Cc2ccc(-c3nn[nH]n3)cc2)n(C)c1=O	i
Cc1ccc(OCC(=O)c2ccc(Cl)cc2)cc1C	18µg/mL*
COc1cc(C=O)c(Br)c(Cl)c1O	1%
CN(Cc1cnn(C)c1)C(=O)c1sc2cc(Cl)ccc2c1Cl	1%
Cc1cc(C(=O)Nc2ccccc2Cc2ccccc2)no1	i
Cc1ccc(CNC(=O)C(C(C)C)N2C(=O)c3ccccc3C2=O)cc1 (stereo not given)	i
COc1ccc(OCC(=O)Nc2ccc(S(=O)(=O)Nc3ccccn3)cc2)cc1	i
COC(=O)c1c(NC(=O)C2CC2)sc(C)c1C	i
c1ccc2nc3c(nc2c1)Nn1cnnc1S3	i
O=C(CSCc1ccc(Br)cc1)NC1CCCC1	1%
CCc1cccc(CC)c1NC(=O)C(CC(C)C)N1C(=O)c2ccccc2C1=O (stereo not given)	i
COc1ccc(NC(=O)C2CCN(C(=O)c3ccccc3)CC2)cc1Cl	i
O=C1c2ccccc2-c2c1cccc2C(=O)N1CCN(C(=O)c2ccco2)CC1	i
O=C(CN1C(=O)c2ccccc2C1=O)Oc1ccc(C2C3=C(CCCC3=O)NC3=C2C(=O)c2ccccc23)cc1 (stereo not given)	i
O=C(Nc1cccc2ncccc12)c1cccnc1	i

Six entries from above in another layout.
smiles,Mtb H37Rv
Cc1cc(C(=O)Nc2ccccc2Cc2ccccc2)no1,i
Cc1ccc(CNC(=O)C(C(C)C)N2C(=O)c3ccccc3C2=O)cc1 (stereo not given),i
COc1ccc(OCC(=O)Nc2ccc(S(=O)(=O)Nc3ccccn3)cc2)cc1,i
COC(=O)c1c(NC(=O)C2CC2)sc(C)c1C,i
c1ccc2nc3c(nc2c1)Nn1cnnc1S3,i
O=C(CSCc1ccc(Br)cc1)NC1CCCC1,1%

Continued:
SMILES	Mtb H37Rv
COC(=O)c1ccc(OC(=O)c2ccccc2C)cc1	i
Cc1nc(-c2ccccc2)c2c(=O)cc(-c3ccccc3)[nH]c2n1	2%
COc1cc(NC(=O)COC(C)=O)cc(OC)c1OC	i
CC(C)Oc1ccc(NC(=O)c2ccccc2[N+](=O)[O-])cc1	2%
O=C1NC(=O)c2cc(Oc3ccccc3)ccc21	i
CCC(C)c1ccccc1NC(=O)c1cccc(OC(C)C)c1 (stereo not given)	5%
Cc1ccc(SCC(=O)NCCSCc2cccs2)cc1	1%
O=C(Nc1ccccc1C(=O)NCc1ccc(Cl)cc1)c1ccco1	i
COc1ccc2nc(Nc3nc(C)cc(C)n3)nc(C)c2c1	i
Cc1cc(C(=O)NCc2ccco2)sc1-c1ccccc1	2%
COC(=O)c1c(NC(=S)Nc2ccc(C(=O)N3CCCC3)cc2)sc(C)c1C	i
Cc1nn(Cc2cccc(C(=O)NN3CCCCC3)c2)c(C)c1Cl	i
Cc1ccc(CN(CC(=O)N2CCc3ccccc3C2)S(=O)(=O)c2ccc(Cl)cc2)cc1	i
CCN(C(=O)COc1ccc(Cl)cc1C)c1ccccc1	i
COc1ccc(CNc2ncnc(N)c2[N+](=O)[O-])cc1	i
Cn1c(=O)n(C)c2cc(S(=O)(=O)NCCc3ccccc3)ccc21	i
Cc1ccccc1NCc1nc2ccccc2n1Cc1ccccc1	4%
O=C(c1cc2c(s1)CCCC2)N1CCc2ccccc21	i
COCCNC(=O)c1cc2c(=O)n3ccccc3nc2s1	i
O=C(NC(=S)Nc1ccc([N+](=O)[O-])cc1)C1CC1	i
CCCCNCc1cc(Cl)c(OCCC)c(OCC)c1	8%
CCOC(=O)c1c(NC(=O)c2cccc(N3C(=O)CCC3=O)c2)sc2c1CCC2	i
Cn1c(SCC(=O)N2CCCc3ccccc32)nnc1-c1c[nH]c2ccccc12	i
CCC(Oc1ccc(NC(=O)c2ccc(C)cc2)cc1)C(=O)c1ccccc1 (stereo not given)	41%
Cn1c(SCC(=O)N2CCN(C(c3ccccc3)c3ccccc3)CC2)nnc1-c1ccc([N+](=O)[O-])cc1	i
SMILES	Mtb H37Rv
CCC(CCC(=O)Nc1ccccc1[N+](=O)[O-])C(=O)O (stereo not given)	i
COC(=O)c1cccc(NC(=O)c2ccc3c(c2)C(=O)N(Cc2ccccc2)C3=O)c1	i
CS(=O)(=O)N1N=C(c2cccs2)CC1c1ccccc1 (stereo not given)	i
O=C1CCC(C(=O)Nc2cccc3ccccc23)N1 (stereo not given)	i
CCCCNS(=O)(=O)c1ccc(NC(=O)c2c(-c3ccccc3Cl)noc2C)cc1	i
Cc1ccc(C(C)C)cc1S(=O)(=O)Nc1cccnc1	i
CCCc1nc2ccccc2n2cc3c(=O)n(C)c(=O)n(C)c3c12	i
O=C(Cc1ccc(Cl)cc1)NC(=S)Nc1ccc(-c2nc3ncccc3o2)cc1	i
CC(C)(C)c1ccc(-c2nc(-c3ccncc3)no2)cc1	i
CCCCC(=O)c1ccc(OCC)cc1	i
O=c1oc2ccccc2n1Cc1ccc(Cl)cc1Cl	i
COc1ccc(CN2C(=O)N(c3ccc(Cl)cc3)C(=O)C2CC(=O)Nc2ccc(F)cc2)cc1 (stereo not given)	i
CC1CN(CCCCOc2ccc(Cl)c3ccccc23)CC(C)O1 (stereo not given)	2%
O=C(O)CCC(=O)NCCCc1ccccc1	i
CCOC(=O)c1c(C)nc(Nc2nc3ccccc3o2)nc1CSc1ccc(C)cc1	i
Cc1oc2cc3oc(=O)c(C)c(C)c3cc2c1-c1ccccc1	4%
O=C(Nc1cc(Cl)ccc1Cl)c1ccccc1I	42%
CCOc1ccccc1OCC(=O)Nc1ccc(Br)cc1	i
Cc1nn(-c2ccccc2)c2sc(C(=O)NC(=S)NCC(=O)c3ccccc3)cc12	i
O=C1CCC(=O)N1OCCCOc1cccc(C(F)(F)F)c1	7%
COC(=O)C1CN(c2ccc(Br)cc2)N=C1C(C)=O (stereo not given)	i
CCOC(=O)c1sc(NC(=S)Nc2cnccn2)c(C(=O)OCC)c1C	8%
O=C(NCCc1ccc(F)cc1)c1cccs1	i
O=C(CN1CCN(CC(=O)Nc2ccccn2)CC1)Nc1ccccn1	i
COc1ccccc1Nc1nc(N2CCC(C)CC2)nc(C)c1[N+](=O)[O-]	i
SMILES	Mtb H37Rv
CCC(C(=O)Nc1nnc(COC)s1)c1ccccc1 (stereo not given)	1%
O=C(Nc1ccc2[nH]c(=O)[nH]c2c1)c1ccc2c(c1)OCO2	i
COc1ccc(CC(=O)Nc2nc3ccc(C)cc3s2)cc1OC	i
O=C(c1ccco1)c1cc2c(ccc3ccccc32)oc1=O	i
COc1cc(C2Nc3cc(C)c(C)cc3NC3=C2C(=O)CC(C)(C)C3)cc(Cl)c1O (stereo not given)	i
O=C(Cc1cccs1)Nc1ccc(F)c(F)c1F	i
COc1ccc(NS(=O)(=O)c2ccc(OC)c(C)c2)cc1	i
Cc1cc(C)n(S(=O)(=O)c2ccc(Cl)cc2C)n1	0%
COC(=O)c1ccccc1NC(=O)CN(C)S(=O)(=O)c1ccccc1	i
O=[N+]([O-])c1ccc(O)c(-c2nc3ccccc3s2)c1	i
CCn1c(SCC(=O)Nc2nc(-c3ccccc3)cs2)nnc1C(C)NC(=O)c1ccccc1 (stereo not given)	i
Cc1ccc([N+](=O)[O-])cc1NC(=O)C(C)N1C(=O)c2ccccc2C1=O (stereo not given)	i
O=C(Nc1ccc(F)c(F)c1)c1sc2cccc(Cl)c2c1Cl	i
CC(C)C(=O)Nc1cccc(NC(=S)NC(=O)c2ccccc2Cl)c1	1%
Cc1cc(C)cc(C(=O)Nc2ccccc2C(N)=O)c1	2%

Assay outcomes as filed in PubChem BioAssay.
